# Beta cell apopt – blocks beta cell apoptosis. INS-1E cytokine-induced death, ATP luminescence, 48 h; percent of positive-control rescue, neutral wells zero. protection from apoptosis, % (concentration not given with the values). 300,000 tested, 0.8% active. AID 435005;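 active means all replicates at 75% or more, or half of them and the mean; inconclusive means half reach 75% but not the mean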;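 further: 0% = cytokine-treated negative control wells and 100% = positive control rescue; higher means more ATP so stronger rescue from cytokine killing; wells of about 40 µL received 100 nL stock; the first replicate is given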
# FGF22 binding – binders of recombinant human FGF22 by thermal shift; Q9HCT0; 340,000 tested, 1.5% active; calls only at 9.99 µM; AID 651658; SYPRO orange fluorescence; percent of sucrose octasulfate shift, DMSO zero;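 active means melting point raised past a set limit in the mean and every replicate; inconclusive means no clear call; three in four hits are not shown here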
# Target sequence (Q9HCT0 whole entry, looked up): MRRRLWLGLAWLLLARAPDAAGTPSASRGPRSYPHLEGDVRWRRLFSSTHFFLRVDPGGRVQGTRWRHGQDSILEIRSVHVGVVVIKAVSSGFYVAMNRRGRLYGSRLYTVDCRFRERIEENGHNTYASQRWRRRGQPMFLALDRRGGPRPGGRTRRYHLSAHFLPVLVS
# UCH37 DUB inh – human UCH37 deubiquitinating enzyme inhibition. Q9Y5K5. purified proteasome/UCH37, Ub-AMC cleavage fluorescence. inhibition, % (no concentration beside the values). 330,000 tested, 0.33% active. AID 588478;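 active means mean of two replicates above 20%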;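 further: 0% = compound-free wells with enzyme and 100% = wells lacking proteasome; stock transfer was 100 nL into about 20 µL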
# Target sequence (Q9Y5K5 whole entry, looked up): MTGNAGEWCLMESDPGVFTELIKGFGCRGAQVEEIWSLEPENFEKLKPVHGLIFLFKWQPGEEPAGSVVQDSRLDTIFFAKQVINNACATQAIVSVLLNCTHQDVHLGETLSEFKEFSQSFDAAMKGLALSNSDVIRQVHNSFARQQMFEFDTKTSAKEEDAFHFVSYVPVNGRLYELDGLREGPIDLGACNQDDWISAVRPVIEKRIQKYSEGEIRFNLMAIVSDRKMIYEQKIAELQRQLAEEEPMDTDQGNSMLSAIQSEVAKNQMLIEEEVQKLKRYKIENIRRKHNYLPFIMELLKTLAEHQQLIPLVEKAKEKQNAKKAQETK
#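 Assay system: Proteasome-bound UCH37. Buffer or medium: pH 7.4 Tris-HCl (50 mM) with ovalbumin, ATP-MgCl2, DTT. Incubation: 30 min preincubation with enzyme, 25 min cleavage at room temperature. Measured by: fluorescence, ex 355 nm, em 460 nm. Read-out basis: percent inhibition. Control set: wells without proteasome as full block, compound-free enzyme plus substrate as uninhibited.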
# E coli growth – blocks Escherichia coli growth; OD600, 23 h; stronger effect = lower value; 330,000 tested, 0.21% active; OD600 absorbance (concentration not given with the values);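 active means OD600 absorbance below the run mean of sample wells minus 3.6 SD, in any replicate, cut at about 0.56 in these data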;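 further: stock transfer was 300 nL into about 60 µL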
# T cruzi repl – blocks replication of Trypanosoma cruzi. T. cruzi beta-gal in NIH3T3, luminescence, 90 h. inhibition, % (concentration not given with the values). 300,000 tested, 1.4% active;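 active means mean inhibition across valid replicates above about 55%, limit read from the data; inconclusive means mean below that limit but half or more replicates reach it; inactive means mean below it, under half of replicates reach it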;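 further: signal also drops with host cell toxicity which is not excluded here; 0% = plate median of DMSO wells and 100% = zero luminescence signal; higher percent means less beta-gal luminescence so fewer parasites; stock transfer was 50 nL into about 50 µL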
# Ecoli rRNA inh – inhibitors of bacterial rRNA selective over humanized ribosomes. E. coli WT GFP vs humanized-ribosome RFP mutants, fluorescence, 24 h; stronger effect = lower value; DMSO median 0, no signal -100. 350,000 tested, 1.6% active. GFP signal change (wild-type ribosome), % (test concentration not listed);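 active means significant combined selectivity score with lowered wild-type GFP, culture density cut under 30%, mutant RFP and density less affected; inactive means any of these conditions unmet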; further: one replicate is shown; some compounds called inactive have numbers as strong as hits
# MLL AF4-AF9 inh – blocks AF4 peptide binding to human AF9; P42568; 350,000 tested, 0.47% active; AlphaScreen, biotin-AF4 peptide binding to FLAG-AF9; inhibition, % at 10 µM;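 active means every replicate reaching a set inhibition limit, whatever the replicate mean, cut at about 25% in these data; inconclusive means mean inhibition reaches that limit but some replicates miss it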;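 further: 0% = plate neutral control median and 100% = total signal loss; the record names both 10 and 1 µM as test concentration; the first replicate is given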
# Target sequence (P42568 whole entry, looked up): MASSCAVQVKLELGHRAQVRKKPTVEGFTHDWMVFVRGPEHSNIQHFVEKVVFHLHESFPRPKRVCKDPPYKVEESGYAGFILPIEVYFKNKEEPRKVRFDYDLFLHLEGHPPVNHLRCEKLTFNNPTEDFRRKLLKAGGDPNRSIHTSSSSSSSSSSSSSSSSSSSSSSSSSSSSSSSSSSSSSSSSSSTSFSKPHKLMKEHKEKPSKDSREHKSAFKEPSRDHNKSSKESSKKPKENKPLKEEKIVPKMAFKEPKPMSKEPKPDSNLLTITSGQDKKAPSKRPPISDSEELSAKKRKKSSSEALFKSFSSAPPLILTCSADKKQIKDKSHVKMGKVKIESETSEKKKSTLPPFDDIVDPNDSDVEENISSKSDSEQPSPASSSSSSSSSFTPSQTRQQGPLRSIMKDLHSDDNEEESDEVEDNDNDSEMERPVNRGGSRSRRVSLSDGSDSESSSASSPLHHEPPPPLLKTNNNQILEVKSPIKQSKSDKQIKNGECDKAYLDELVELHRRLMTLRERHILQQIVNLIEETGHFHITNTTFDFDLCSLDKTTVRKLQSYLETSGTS
# Bfl-1 A1 inh – inhibitors of the anti-apoptotic protein A1, read as caspase activation; 330,000 tested, 0.066% active; caspase activation, % (test concentration not listed); MEF A1-2A-BIM cells, Caspase-Glo 3/7 luminescence, 3 h; percent of clofoctol response, vehicle zero; AID 2462;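 active means over half of replicate activation scores above 10%, or exactly half above 10 with the replicate mean above 10; inconclusive means replicate mean below 10 yet half the replicates above 10; inactive means over half of replicates below 10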;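 further: wells of about 30 µL received 50 nL stock; many hits fall short of the cut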
# Ecoli rRNA inh OD600 – recorded beside Ecoli rRNA inh, whose call it bears; OD600 change, %; measured here: OD600 growth;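 optical density of the mix in the first replicate; 0 = DMSO median and -100 = no signal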
# Ecoli rRNA inh RFP – recorded beside Ecoli rRNA inh, whose call it bears; RFP signal change, %; measured here: RFP humanized mutant strains;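 first replicate; 0 = DMSO median and -100 = no signal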
# Active calls of the source: *; i = inactive; ? = inconclusive; . = not tested or not shown. These rows are one share of the data; the hit share may differ from the screen's.
SMILES,Beta cell apopt,FGF22 binding,UCH37 DUB inh,E coli growth,T cruzi repl,Ecoli rRNA inh,Ecoli rRNA inh OD600,Ecoli rRNA inh RFP,MLL AF4-AF9 inh,Bfl-1 A1 inh
Cc1cc(-c2ccc(C(C)C)c(S(=O)(=O)N3CC(=O)Nc4ccccc43)c2)on1,-6,i,0.8,0.61,10,8,1,-2.3,1.2,2.0
CC(=O)c1ccc(CCCc2ccc(C(C)=O)cc2)cc1,.,i,1.6,0.64,.,-49,-72,-14,-2.1,.
Cc1c(C(=O)N(C)C(C)c2ccccn2)oc2c(F)cccc12 (centres undefined),10,i,5.4,0.68,2,-7,-24,-1.6,-1.5,-0.2
CC(Oc1ccc(Cl)cc1)c1ccc(C#N)c(=O)[nH]1 (centres undefined),1,i,-19,0.68,-2,-16,-21,-7.7,2.3,1.0
CCOC(=O)N1CCN(C(=O)Cc2cccs2)CC1,-2,.,-2.1,0.78,-3,.,.,.,.,-0.6
Cc1ccc(C(=O)N2CCC(C(=O)c3ccc(F)cc3)CC2)cc1,.,i,0.8,0.63,.,-8,-2,-3.1,1.6,.
Cc1cc(NC(=O)c2ccccc2NS(=O)(=O)c2c(C)c(C)cc(C)c2C)no1,9,.,-14,0.69,-20,.,.,.,.,0.5
CC(C)C(=O)Nc1cccc(-c2cn3ccccc3n2)c1,6,.,-28,0.66,7,.,.,.,.,-0.3
CN1C(=S)SC(C)(C)C1/[N+]([O-])=C/c1cccnc1 (centres undefined),-2,.,-0.4,0.73,-1,.,.,.,.,-0.5
Cc1ccc(N/C(C(Cl)=C(Cl)Cl)=C(/Cl)[N+](=O)[O-])c(C)c1,.,i,9.0,0.7,50,5,-6,-1.1,5.5,.
COc1ccc(-c2oc(=O)c3cc(OC)c(OC)cc3c2C(F)(F)F)cc1,2,i,1.5,0.66,.,4,1,-0.5,.,0.8
CCOc1ccc(S(=O)(=O)N/N=C(\C)c2ccc(Cl)c(Cl)c2Cl)cc1,-2,i,.,.,-8,-9,0,4.9,-3.0,-0.5
CC(=O)Nc1ccc(S(=O)(=O)NNC(=O)c2cc3c4ccccc4n(C)c3s2)cc1,-13,.,-9.0,0.73,-5,.,.,.,.,-1.5
CC(C)N1CCN(Cc2cccn2-c2cccnc2)CC1CCO (centres undefined),-5,.,-2.6,0.69,4,9,10,1.8,0.5,1.0
CCCCc1nnc(NC(=O)C2=COCCO2)s1,0,i,0.7,0.67,-1,3,2,-1.7,-3.0,-1.3
Cc1cc(C)n2nc(C(=O)Nc3cccnc3)nc2n1,-4,.,3.9,0.78,-5,.,.,.,.,0.9
Cc1ccc2c(c1C)OC(=O)CC2c1ccccc1 (centres undefined),1,i,5.7,0.69,-3,-27*,-3.6*,-0.1*,-3.7,0.7
COc1cc(C(=S)N2CCN(c3ccccc3Cl)CC2)cc(O)c1O,-4,i,7.9,0.71,18,-58,-77,-28,7.1,-0.8
Cc1cnc(NC(=O)CSc2nnc(-c3cccs3)n2C)s1,-8,.,1.5,0.67,0,.,.,.,.,0.3
CCNc1c([N+](=O)[O-])c(=O)n(CC)c2ccccc12,.,i,4.8,0.68,19,-33*,-23*,0.5*,-5.1,1.0
Cn1c(NC(=O)CC2CCCCC2)cc(=O)n(C)c1=O,4,i,5.2,0.72,-12,-6,0,-7.9,6.0,-0.1
CC1(C)Cn2c(nc(=O)c3c2NCN(CCc2ccccc2)C3)S1,-8,.,3.6,0.68,-10,.,.,.,.,-0.6
Brc1ccccc1CN1CCC(N2CCCCC2)CC1,-9,.,2.3,0.72,15,.,.,.,.,0.6
N#CC(c1ccccc1)c1cccc(Cl)n1 (centres undefined),.,i,0.8,0.61,-6,1,4,-3.2,-1.1,-1.0
Cc1cc(C)c(C#N)c(=N)o1,-4,.,-5.6,0.64,0,.,.,.,.,-0.6
Cc1cccc(C)c1NC(=O)CSC(=S)N1CCCC1,-1,.,4.7,0.7,-13,21,13,-0.5,-1.2,0.8
Cc1cccc(CN2CCCC(C(=O)N3CCc4ccccc4C3)C2)c1 (centres undefined),1,.,9.5,0.64,55*,.,.,.,.,0.5
Cc1nn(CC(=O)Nc2c(F)c(F)cc(F)c2F)c(=O)c2cccn12,.,i,1.1,0.68,-11,11,7,3.0,0.8,0.7
O=C(Cc1ccc([N+](=O)[O-])cc1)Nc1cccc(C(=O)N2CCCCC2)c1,1,i,-0.2,0.6,.,-4,-12,-9.1,-2.9,-0.8
COC(=O)CCSCC(=O)Nc1ccc(C)c(S(=O)(=O)N2CCCCC2)c1,-1,i,3.0,0.7,6,-4,-11,-2.7,-12,-0.9
CCOc1ccc(CCNC(=O)CSc2n[nH]c(N)n2)cc1OCC,-3,i,0.0,0.7,-9,8,-1,3.0,-1.3,2.1
CCOC(=O)N1CCC(N2CCN(S(=O)(=O)c3ccc(C)cc3)CC2)CC1,3,.,1.9,0.69,-3,.,.,.,.,-0.3
O=C(N/N=C/c1ccc(O)cc1)c1cc(C2CC2)[nH]n1,-2,i,.,.,-5,-1,4,0.8,-2.3,-0.2
COc1ccc(Cl)cc1NC(=O)C1Cc2cc(S(=O)(=O)N3CCCC3)ccc2N1C(C)=O (centres undefined),.,i,1.2,0.62,-18,6,-1,4.4,4.1,-1.5
COc1ccc(-c2cnnc(N/N=C/c3ccc(C)o3)n2)cc1,-3,i,.,.,-4,-38,-73,9.5,-2.1,0.4
COC(=O)c1cc(OC)c(OC)cc1NC(=O)c1csc(C)c1,6,i,-178,0.7,23,12,15,-0.6,-3.5,-0.9
CCOCc1nnc(NC(=O)c2cc(OC)c(OC)cc2[N+](=O)[O-])s1,-8,i,0.9,0.71,-1,6,-6,-3.6,-0.6,-0.2
Cc1ccc(C(=O)N2CCN(c3ccccc3)CC2)cc1C,-7,i,5.0,0.68,-35,-10,1,0.1,4.6,0.4
COCCNC(=O)CN(Cc1ccc(OC)cc1)C(=O)CCC(=O)Nc1nccs1,-4,i,.,.,-6,7,6,0.4,0.3,0.7
COc1ccc(C)cc1NC(=O)NC1CCCc2ccccc21 (centres undefined),7,i,2.1,0.69,11,4,13,-0.4,-2.1,-0.1
CN(Cc1ccccc1)C(=O)c1ccc(NC2=NC3CS(=O)(=O)CC3S2)cc1 (centres undefined),0,i,0.9,0.81,-11,6,0,-12,7.1,.
CCOC(=O)c1ccc(NC(=S)Nc2ccc(Br)cc2N)cc1,.,.,0.8,0.63,-7,.,.,.,.,-0.1
O=C(CSc1ncccn1)Nc1cccc(S(=O)(=O)N2CCOCC2)c1,-2,i,2.0,0.7,.,6,-2,1.5,0.1,-0.3
COc1ccc(C/C(C)=N/NS(=O)(=O)c2ccc(Br)cc2)cc1,-5,i,.,.,-6,3,4,5.0,5.8,-0.5
CCN(CC(=O)NC(=O)NCc1ccccc1)CC(=O)Nc1cc(Cl)ccc1C,5,i,4.4,0.69,.,-37,-71,5.1,0.4,-0.5
O=C(Cc1nnc(NC(=O)Nc2ccc(F)cc2)s1)NCc1ccccc1,-3,i,1.5,0.61,6,3,6,2.0,-4.7,1.3
CCCNC(=O)C(Cc1ccccc1F)NC(=O)c1ccc(C#N)cc1 (centres undefined),6,i,2.0,0.7,.,1,2,8.8,-7.0,2.3
COc1cc(/C=C/C(=O)c2ccc(O)cc2)ccc1OCC#N,-3,i,3.7,0.7,-6,.,.,.,7.3,0.1
O=C(NCc1ccccc1)[C@@H]1CSC2c3ccccc3C(=O)N21 (some centres undefined),-14,.,2.3,0.66,-3,.,.,.,.,-0.4
Cc1cc(NC(=O)CN2C(=O)N(C)C3(CCCCC3)C2=O)ccc1Br,1,i,2.0,0.65,.,-37,-43,-8.7,2.5,1.9
# Carrying on.
SMILES,Beta cell apopt,FGF22 binding,UCH37 DUB inh,E coli growth,T cruzi repl,Ecoli rRNA inh,Ecoli rRNA inh OD600,Ecoli rRNA inh RFP,MLL AF4-AF9 inh,Bfl-1 A1 inh
CSc1ccc(C2(O)Cc3cccc[n+]3C2c2ccccc2)cc1 (centres undefined),4,i,3.3,0.73,-19,7,6,1.6,-15,-0.3
CC1C(=O)N2CCCc3cc(NS(=O)(=O)c4ccccc4)cc1c32 (centres undefined),-1,i,3.7,0.7,-10,-1,-4,1.8,2.4,-0.1
Cc1ccc(NC(=O)N2CCC(O)(c3cccnc3)CC2)cc1,-3,.,3.2,0.69,-29,.,.,.,.,0.2
Cc1nc(-c2ccc(C(F)(F)F)cc2)sc1C(=O)NN,-1,i,2.9,0.66,-5,-2,-3,-1.1,-2.1,-1.4
Cc1cc(C(=O)NNC(=O)C(CCC(N)=O)NS(=O)(=O)c2ccc(Cl)cc2)c(C)o1 (centres undefined),-16,i,1.3,0.71,.,6,15,0.8,-2.2,0.7
COc1ccc(CC(=O)N(C)Cc2ccc(Cl)cc2)cc1S(=O)(=O)N1CCOCC1,-5,i,-1.3,0.65,12,-6,-3,0.1,12,0.6
CCN(CC)c1ccc(NC(=O)/C=C\c2ccccc2Cl)cc1,21,.,3.9,0.64,?,.,.,.,.,-0.1
COC(=O)c1ccccc1NC(=O)c1cnn2c(C)cc(C)nc12,1,.,0.8,0.69,7,11,2,-0.5,-0.6,-0.2
COc1ccc(C2CC3(CC(C)(C)NC(=O)N3)Oc3cc(O)ccc32)cc1 (centres undefined),9,.,1.8,0.73,-4,.,.,.,.,1.9
COc1ccc(-c2nnc(SCC(=O)O)n2C)cc1OC,-2,i,.,.,-1,5,2,0.2,-0.8,-0.2
CCOc1ccc(Br)cc1S(=O)(=O)Nc1ccc(C(=O)OCC(=O)N(C)c2ccccc2)cc1,7,.,0.5,0.64,25,.,.,.,.,0.2
Cc1cccc(C(=O)N2CC3(C)CC2CC(C)(C)C3)c1 (centres undefined),0,.,0.5,0.65,-2,.,.,.,.,-0.7
Nc1ccn(CC(=O)NCCCc2ccccc2)c(=O)n1,-2,i,4.4,0.66,.,14,15,-7.3,-4.1,0.4
Cc1nn(CC(=O)Nc2ccc(Br)cc2F)c(=O)c2cccn12,1,i,3.6,0.67,4,1,-5,0.0,0.4,1.1
Cc1ccc(NC(=O)C(c2ccccc2)c2ccccc2)c(O)c1,2,i,5.8,0.66,-17,-74,-79,-32,0.6,0.0
CCC(C(=O)NCC1CCCO1)N(C(=O)c1snc(C(N)=O)c1N)c1ccc(Cl)cc1 (centres undefined),-2,i,-64,0.67,0,3,2,-1.4,-3.0,1.1
Cc1nc(-c2ccncc2)sc1C(=O)Nc1ccc(Cl)cc1,7,.,7.7,0.66,3,10,14,1.3,0.9,0.3
CC1CC(C)CN(C(=O)CCCn2c(=S)[nH]c3ccccc3c2=O)C1 (centres undefined),9,.,3.3,0.67,4,.,.,.,.,3.3

# Assay outcomes as filed in PubChem BioAssay.
